Screening results deposited in PubChem by several laboratories.
Mtb bLac sens: beta-lactam sensitization of Mtb H37Rv, H37Rv. M. tuberculosis H37Rv growth with meropenem, percent inhibition; hits of this screen are not shown here. inhibition, % at 25 µM. hit rate 0.27% among 330,000. AID 434955, 2010;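 active = about 74% or more and at least 40 points above the plate without the antibiotic, then above 30% in a dose series; inconclusive = first-round hits that could not be retested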;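 also: growth measured after seven days incubation then overnight dye step; 0% = bacteria only wells and 100% = bacteria with antibiotic; twin plates without the antibiotic show which effects depend on it; some results filed as inactive read as strong as hits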
RecA intein inh: Mtb RecA intein splicing inhibitors, primary screen, biochemical, fluorescence, HTS | Protein RecA (Mycobacterium tuberculosis (strain ATCC 25618 / H37Rv)), P9WHJ3 | cell-free RecA intein splicing | hit rate 0.75% among 290,000 | inhibition, %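 (about 9 µM by stock and volumes)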; in the data active = inhibition above about 30%; inconclusive = no clear call, values can overlap the other calls;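 also: 0% = vehicle wells and 100% = reference inhibitor control wells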
Target sequence (P9WHJ3 whole entry, looked up): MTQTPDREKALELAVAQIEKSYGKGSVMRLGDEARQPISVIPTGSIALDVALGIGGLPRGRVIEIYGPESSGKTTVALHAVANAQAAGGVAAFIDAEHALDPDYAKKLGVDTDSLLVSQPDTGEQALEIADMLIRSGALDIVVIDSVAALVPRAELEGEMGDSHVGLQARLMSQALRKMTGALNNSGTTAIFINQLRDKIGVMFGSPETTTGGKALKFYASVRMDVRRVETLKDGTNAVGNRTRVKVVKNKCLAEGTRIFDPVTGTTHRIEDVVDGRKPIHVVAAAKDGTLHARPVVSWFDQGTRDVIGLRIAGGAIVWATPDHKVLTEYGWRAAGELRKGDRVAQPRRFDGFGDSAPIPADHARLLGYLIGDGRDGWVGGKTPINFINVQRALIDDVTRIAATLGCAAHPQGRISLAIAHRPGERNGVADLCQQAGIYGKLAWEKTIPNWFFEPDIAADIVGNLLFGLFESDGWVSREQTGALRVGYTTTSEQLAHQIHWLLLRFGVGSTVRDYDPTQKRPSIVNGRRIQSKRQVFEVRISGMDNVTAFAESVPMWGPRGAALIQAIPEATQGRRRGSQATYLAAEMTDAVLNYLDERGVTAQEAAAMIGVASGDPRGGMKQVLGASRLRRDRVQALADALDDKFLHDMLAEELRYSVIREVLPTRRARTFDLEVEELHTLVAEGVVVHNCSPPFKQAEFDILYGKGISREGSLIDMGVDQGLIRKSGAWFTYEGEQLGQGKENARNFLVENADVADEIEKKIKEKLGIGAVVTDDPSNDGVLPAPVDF
Arbovirus inh: antivirals against arbovirus infection, primary screen, cell-based, full library, 10K replicate subset | arbovirus infection cell-based antiviral screen | inhibition, % at 10 µM | hit rate 0.37% among 200,000 | AID 1251, 2008;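 active = inhibition from about 30%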;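 also: bluetongue infection of BSR cells; cell survival read as ATP light after 72 h; 0% = infected wells without compound and 100% = uninfected wells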
Mtb growth: M. tuberculosis H37Rv growth inhibitors, H37Rv strain (AID 1626); M. tuberculosis H37Rv growth inhibition; higher % means a stronger effect; inhibition, % at 10 µM; hits with a dose series show IC50 in µM; hit rate 0.95% among 220,000;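 active = confirmed in a dose series; inconclusive = inhibition above 80% but not taken into the dose series; inactive = below 80% or under 30% at every dose of the series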;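 also: bacteria incubated seven days before Alamar blue readout; 0% = bacteria only wells and 100% = bacteria with antibiotic wells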
YopH PTP inh: YopH tyrosine phosphatase inhibitors, primary screen, biochemical, fluorescence Ex485/Em525; AID 898, 2007; inhibition, %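 (about 10 µM by stock and volumes)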; YopH tyrosine phosphatase [Yersinia enterocolitica]; hit rate 0.16% among 140,000;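 active = inhibition of 50% or more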;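 also: controls were vehicle for no effect and minimum signal wells for full effect; inactives centre near -20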
Arbovirus inh repeat: recorded beside Arbovirus inh, whose call it bears; inhibition, %; measured here: 10K subset replicate screen; many hits read low in the repeat;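 first of two repeat runs on a subset; 0% = infected and 100% = uninfected wells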
* marks the source's active call; other numbers are inactive results; ? = inconclusive; . = not tested or not shown. A portion of the library; rates above refer to the full screens.

SMILES	Mtb bLac sens	RecA intein inh	Arbovirus inh	Mtb growth	YopH PTP inh	others
CCSc1nc2ccccc2n1CC(=O)OC	-3	-0.2	9	-5%	13
Cc1cccc(C2NC(=O)c3ccccc3O2)c1 (centres undefined)	-1	0.6	.	.	.
O=S(=O)(NC1CCCCC1)c1cccc(-c2nnc(-c3ccccc3)o2)c1	-5	1.3	5	0%	-44	Arbovirus inh repeat=1
Cc1nnc(Nc2ccc(Cl)cc2)n(N)c1=O	-8	-2.8	3	-3%	3
CCCCNS(=O)(=O)c1ccc(OCC(=O)N2CCN(Cc3ccc4c(c3)OCO4)CC2)cc1	-6	-2.8	.	.	.
CCOc1ccc(NC(=O)Nc2nnc(CC)s2)cc1	-8	-0.6	12	-3%	-33
COc1ccccc1CC(=O)Nc1cccc(F)c1	-4	1.5	1	5%	.
O=C(CCN1C(=O)/C(=C/c2cccs2)SC1=S)N1CCCCC1	99	4.4	.	.	.
COC(=O)c1ccc(NC(=O)CSc2nncc3ccc(OC)c(OC)c23)cc1	7	1.1	-7	3%	-25
O=C(N/N=C/c1ccccn1)c1cc(-c2ccc(Br)cc2)nc2ccccc12	96	1.9	.	?	.
Cc1ccc(C2=NC3(CCCCCC3)NC2=S)cc1	-2	0.0	4	8%	-21
COc1cc(C(=O)NCCOc2cccc(C)c2)c(Br)c(OC)c1OC	-2	1.3	-4	-1%	-31
Cc1cc(N2CCN(Cc3ccccc3)CC2)n2nc(C)c(-c3ccccc3)c2n1	-8	-0.1	4	-4%	7
Cc1cc(C(=O)NNC(=O)Nc2ccccc2)no1	-10	2.0	.	3%	.
O=c1[nH]c2ccccc2c2ccccc12	-3	0.6	2	5%	.
COc1ccc(OC)c(/C=N/n2c(COc3ccccc3)n[nH]c2=S)c1	14	-3.1	.	.	.
CN(CCO)Cc1csc2ccc(Br)cc12	10	-1.0	-2	4%	-19
O=C(O)Cc1ccc(NS(=O)(=O)c2ccc3ccccc3c2)cc1	-2	0.7	.	.	.
CCOc1ccccc1N(CC(=O)Nc1ccccc1)S(=O)(=O)c1ccccc1	0	-0.4	.	.	.
Cc1cccc(C)c1NC(=O)NC1(C(=O)NCCCN2CCOCC2)CCCCC1	-10	0.2	11	-5%	-33
COc1ccc(C(=O)O)c(OC)n1	-3	-1.1	.	4%	.
COC(=O)C1=C(c2ccc(S(C)(=O)=O)cc2)C[C@@H]2CC[C@H]1N2C(=O)NCCCOC(C)C	-1	-0.6	.	-6%	.
Cc1ccc(NC(=O)CCC(=O)NNS(=O)(=O)c2ccccc2)cc1C	13	-2.6	-4	0%	2
Cc1cc(N2Cc3ccccc3C2)ccc1C=O	0	6.6	.	.	.
CCOC(=O)c1[nH]c2c(c1-c1ccccc1)C(=O)CC(c1ccc(OCC)cc1)C2 (centres undefined)	4	-6.3	-2	.	-20

Compounds listed so far with an NH in an aromatic ring, in the order listed:
SMILES	Mtb bLac sens	RecA intein inh	Arbovirus inh	Mtb growth	YopH PTP inh	others
O=c1[nH]c2ccccc2c2ccccc12	-3	0.6	2	5%	.
COc1ccc(OC)c(/C=N/n2c(COc3ccccc3)n[nH]c2=S)c1	14	-3.1	.	.	.
CCOC(=O)c1[nH]c2c(c1-c1ccccc1)C(=O)CC(c1ccc(OCC)cc1)C2 (centres undefined)	4	-6.3	-2	.	-20

Next part.
SMILES	Mtb bLac sens	RecA intein inh	Arbovirus inh	Mtb growth	YopH PTP inh	others
CCCOc1ccc(/C(O)=C2\C(=O)C(=O)N(CCCOC)C23C(=O)N(C)c2ccccc23)cc1 (centres undefined)	7	-0.7	7	-8%	-4
Cc1ccc(-c2ccc(CCC(=O)O)n2NC(N)=S)cc1	14	0.0	5	1%	-10
CC1CCCC(NC(=O)C2N(CCCN3CCCC3)C(=O)C3C(C(=O)Nc4cccc(Cl)c4)C4C=CC32O4)C1C (centres undefined)	2	1.8	.	.	.
CN(Cc1ccccc1O)CC1CCCN(CCc2ccc(Cl)cc2)C1 (centres undefined)	8	2.0	.	.	.
CCOC(=O)c1c(-c2cccs2)csc1NC(=O)CSc1ncn[nH]1	92	1.0	-2	5%	-5
CCCCCCCC(=O)NN=C1CCN(Cc2ccccc2)CC1	92	1.2	-9	?	-12
COc1ccc(C)cc1S(=O)(=O)N(CC(=O)N1CCCC1)c1ccccc1	7	0.1	10	0%	-32
O=C(NC1CSC/C1=N\O)c1ccccc1 (centres undefined)	-8	-0.7	1	-2%	-42	Arbovirus inh repeat=0
COc1ccc(S(=O)(=O)N2CCOCC2)cc1NC(=O)Cc1ccc(Cl)c(Cl)c1	2	1.3	4	-5%	-7
CC1(C)c2[nH]c3ccccc3c2C[C@H]2C(=O)N(CCCCCO)CC(=O)N21	-3	0.9	.	.	.
CC(=O)c1c(O)cc(=O)n(-c2ccccc2)c1-c1cccc2ccccc12	-3	-0.4	9	0%	-17
CC(=O)Nc1ccc(S(=O)(=O)NC2(C(F)(F)F)NC(=O)N(C3CCCCC3)C2=O)cc1 (centres undefined)	-7	-4.0	0	3%	-18
O=C(c1cc(-c2ccc3c(c2)OCO3)on1)N1CCOCC1	-2	-1.4	2	5%	5
C=CCn1c(C)cc(C(=O)COC(=O)C2CC(=O)N(CCc3ccc(OC)c(OC)c3)C2)c1C (centres undefined)	50	-3.7	.	.	.
Cc1cc(C(=O)OCC(=O)NCCc2ccccc2)c(C)o1	-8	.	-2	-1%	-34
CC(CC(=O)Nc1cccc(Cl)c1)c1ccccc1 (centres undefined)	5	6.8	-8	5%	-15
COc1ccccc1-n1cnc2c(c1=O)c1nc3ccccc3nc1n2-c1ccc(C)cc1	10	3.3	-8	11%	-14
COc1ccc(C(c2nnnn2Cc2ccccc2)N2CCN(c3nc4ccccc4s3)CC2)cc1OC (centres undefined)	-10	13	-1	10%	-20
Cc1c(Cl)cccc1-c1ccc(C(=O)N2CCN(c3ccc([N+](=O)[O-])cc3)CC2)o1	35	-0.4	9	18%	-43
CC(=O)OC(C(=O)NC1CCCCC1)c1ccc(C)cc1 (centres undefined)	-6	-0.6	8	-5%	-28
CCN(CC)C(=O)C1CCCN(Cc2ccc3ccccc3c2)C1 (centres undefined)	-2	-0.5	.	.	.
CC1CCCN(C(=O)c2ccc(CNc3c(N4CCCCC4)c(=O)c3=O)cc2)C1 (centres undefined)	100	0.1	3	?	-30
Cc1ccc(S(=O)(=O)NCc2ccc(C(=O)N3CCN(Cc4ccccc4)CC3)cc2)cc1	0	2.2	-13	-2%	7
O=C(OCCN1CCOCC1)c1ccccc1Cl	4	1.0	.	.	.
O=C(O)CC(CC(=O)Nc1ccc(N2CCOCC2)cc1)c1ccccc1 (centres undefined)	9	-4.4	.	-5%	.

Next section
SMILES	Mtb bLac sens	RecA intein inh	Arbovirus inh	Mtb growth	YopH PTP inh	others
O=C(Cn1c(=S)[nH]c2ncccc2c1=O)NCCc1ccccc1	-2	-4.1	-7	-1%	.
COc1cc(Nc2nc3ccccc3n3nnnc23)cc(OC)c1OC	3	-3.5	-5	1%	-37
CCc1cc(C(=O)N(C)CC(=O)N(CC(C)C)c2c(N)n(CC(C)C)c(=O)[nH]c2=O)sc1C	-4	2.6	.	.	.
O=C(Nc1ccc2oc(-c3cccc(F)c3)nc2c1)c1ccccc1F	-1	-0.1	-18	-17%	2
CCOC(=O)Cc1csc(N/C(=N/S(=O)(=O)c2cc(Br)ccc2OCC)c2ccccc2)n1	0	2.5	18	-13%	-42
COc1ccc(NC(=O)C2CCN(S(=O)(=O)c3ccc4[nH]c(=O)oc4c3)CC2)c(OC)c1	8	-0.2	.	.	.
O=C(O)c1oc2ccc(Br)cc2c1-n1cccc1	12	3.6	.	-3%	-66
CCc1ccccc1NC(=O)c1cc(S(=O)(=O)N2CCCC2)c[nH]1	2	0.9	.	.	.
CC(C)NC(=O)CNc1ccc(C(F)(F)F)cc1[N+](=O)[O-]	-4	0.0	13	4%	.
O=C(Nc1nc2c(s1)CCCC2)C1COc2ccccc2O1 (centres undefined)	3	4.2	15	7%	-31	Arbovirus inh repeat=21
COC(=O)c1ccccc1NC(=O)Nc1ccc(Cl)cn1	14	.	4	4%	.
Cc1c(Cl)c([N+](=O)[O-])nn1CC(=O)NCC(C)C	-1	-0.8	1	-31%	.
Cc1sc2nc(SCC(N)=O)n(-c3ccccc3)c(=O)c2c1C	-9	0.5	10	-3%	.
O=C(O)C1CC=CCC1C(=O)Nc1cccc(C(=O)N2CCCCC2)c1 (centres undefined)	1	-8.3	8	-6%	-18
CCOC(=O)C(NC(=O)N(C)C)(Nc1sc(C)c(CC)c1C#N)C(F)(F)F (centres undefined)	-1	-10	2	-2%	-11
CCOC(=O)c1ccc(NC(=O)CCC(=O)NCc2ccco2)cc1	88	0.9	.	.	.
CC1Cc2ccccc2N1Cc1cccc(S(=O)(=O)N(C)C)c1 (centres undefined)	3	5.0	.	.	.
CCOC(=O)c1ccc(Nc2nc(C)cc(C)c2C#N)cc1	95	-3.4	8	34%	8
COC(=O)c1sc2ncn(CC(=O)NCCc3ccc(OC)c(OC)c3)c(=O)c2c1C	-8	0.7	-6	-2%	.
CC(C)(C)N1CC23C=CC(C[C@@H]2C1=O)O3 (some centres undefined)	0	0.7	.	.	.
CCCn1c(=O)c2ccccc2n2c(SCc3nnc(-c4ccccc4Br)o3)nnc12	-4	2.7	3	-17%	-27
O=S(=O)(Nc1nc2ccccc2nc1Cl)c1ccccc1C(F)(F)F	11	-3.1	.	.	.
CC1CCCCC1NC(=O)CN1C(=O)CSc2cc(S(=O)(=O)N3CCCCCC3)ccc21 (centres undefined)	-5	12	3	10%	-2
O=C(COC(=O)C1COc2ccccc2O1)NC(=O)NC1CCCCC1 (centres undefined)	-5	-3.1	4	-7%	-12
COC(=O)CSc1ccc(S(=O)(=O)N2CCOCC2)cc1[N+](=O)[O-]	6	4.2	-3	-8%	-3

New compounds follow.
SMILES	Mtb bLac sens	RecA intein inh	Arbovirus inh	Mtb growth	YopH PTP inh	others
CN(c1ccc(O)cc1)c1nc(O)c(C2=c3ccccc3=NC2=O)s1	1	0.4	.	.	.
CC(=O)Nc1ccc(N=Cc2c(O)n(Cc3ccco3)c(=O)[nH]c2=O)cc1	18	-2.1	.	-6%	.
CCP(=O)(CC)C(C)(C)CP(=O)(c1ccccc1)c1ccccc1	-3	2.7	-1	-8%	-33
Cc1ccccc1C(=O)c1c[nH]c(C(N)=O)c1	0	-0.2	0	4%	-8
COc1cc(NC(C)=O)c2ncccc2c1[N+](=O)[O-]	-3	-1.8	0	1%	-22
CC(CCOS(N)(=O)=O)c1ccccc1 (centres undefined)	2	-1.5	.	.	.
O=C(NNC(=O)C1CC1)c1cc2cc3ccccc3nc2s1	10	-1.3	12	2%	.
O=C(CN(CCN1CCOCC1)C(=O)Cn1nnc(-c2ccc(F)cc2)n1)NC1CCCCC1	2	1.9	0	-5%	-33
Cc1nc2nc(C)c(NS(=O)(=O)c3ccc4c(c3)CCCC4)c(=O)n2[nH]1	-7	0.7	.	.	.
Fc1ccc2c(c1)C(c1ccncc1)=NNC(c1ccc(Cl)cc1)=N2	7	1.4	-5	-1%	-48
C/C(CC(=O)Nc1ccc(Cl)cc1Cl)=N\NC(=O)C(=O)N1CCCC1	0	0.9	1	3%	.
COC(=O)c1sc(N2C(=O)C(O)=C(C(=O)c3ccc(C)o3)C2c2ccc([N+](=O)[O-])cc2)nc1C (centres undefined)	-4	1.0	.	.	.
COCCNC(=O)C1CC2Cn3c(nc4ccccc43)C2N1C (centres undefined)	-11	1.6	.	-7%	.
O=C(N/N=C/c1c(O)n(-c2ccccc2)c(=O)[nH]c1=O)c1ccncc1	99	-9.7	7	?	-5
CCOC(=O)c1[nH]c2ccc(OC)cc2c1NS(=O)(=O)c1ccc(OC)cc1OC	-4	-1.5	1	-8%	-6
CCn1c2c(c3cc(OCC(C)C)ccc31)CCCC2=O	-2	9.1	-1	-3%	-14

Reprinted at random: 6 entries already listed
SMILES	Mtb bLac sens	RecA intein inh	Arbovirus inh	Mtb growth	YopH PTP inh	others
O=C(N/N=C/c1c(O)n(-c2ccccc2)c(=O)[nH]c1=O)c1ccncc1	99	-9.7	7	?	-5
COc1cc(NC(C)=O)c2ncccc2c1[N+](=O)[O-]	-3	-1.8	0	1%	-22
C/C(CC(=O)Nc1ccc(Cl)cc1Cl)=N\NC(=O)C(=O)N1CCCC1	0	0.9	1	3%	.
CC(CCOS(N)(=O)=O)c1ccccc1 (centres undefined)	2	-1.5	.	.	.
COCCNC(=O)C1CC2Cn3c(nc4ccccc43)C2N1C (centres undefined)	-11	1.6	.	-7%	.
CCP(=O)(CC)C(C)(C)CP(=O)(c1ccccc1)c1ccccc1	-3	2.7	-1	-8%	-33
